Source: PubChem BioAssay (several laboratories)
Sa ugtP lethal: kills S. aureus RN4220 lacking UgtP; S. aureus RN4220 ugtP deletion, OD600 growth, 16 h; some inactives read as strong as hits; 330,000 tested, 0.54% active; AID 1259309; growth inhibition, % (concentration not given with the values);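 active means z-score under -3 and OD600 up to 0.15 on both plates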;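 further: plate controls were untreated wells for no effect and antibiotic for full effect; wells of about 80 µL received 100 nL stock; the first replicate is given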
Autofluor counter: compound fluorescence in toxin protease inhibitor counterscreen; compound autofluorescence counterscreen, microsphere flow cytometry; active compounds read high; fluorescence intensity (concentration not given with the values); 360,000 tested, 3.1% active;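 active means at least 3 SD above the mean of all compounds, about 16000 in these data; inconclusive means too few beads counted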;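 further: 100 nL of 1 mM stock went into each well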
BJeLR viability: BJeLR cell viability loss; inhibition, % (test concentration not listed); BJeLR (HRASV12) viability, CellTiter-Glo ATP luminescence, 48 h; reference of the scale not given here; 300,000 tested, 0.17% active;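 active means replicate mean above 50%; inconclusive means above 50% but judged a plate artefact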;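 further: 50 nL library stock added to about 25 µL; numbers are from one replicate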
Mtb hypoxia inh: inhibitors of hypoxia-regulated fluorescent reporter in Mycobacterium tuberculosis. M. tuberculosis hypoxia-regulated fluorescent reporter, fluorescence. fluorescence inhibition, % (test concentration not listed). 300,000 tested, 0.1% active. AID 1159583;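 active means 35 to 45% if threefold the growth effect, above 45% if 1.5-fold the growth effect; inactive means the rest, general growth blockers included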;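 further: wells of about 50 µL received 100 nL stock; 0% = vehicle wells and 100% = reference inhibitor wells; whole bacteria with a GFP reporter of the hypoxia response; strong numbers were not always called active; many hits fall short of the cut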
PrP UTR inh: inhibition of PrP 5' UTR reporter expression; cell-based PrP 5' UTR mRNA reporter, plate reader; inhibition, % (no concentration beside the values); 340,000 tested, 0.35% active; AID 488862;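 active means every replicate at 50% or more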;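 further: 0 = median of the neutral control wells; tested in H4 reporter cells; numbers are from one replicate; inactives centre near -14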
Sa RN4220 lethal: S. aureus RN4220 growth inhibition; OD600, 16 h; inhibition, % (no concentration beside the values); 330,000 tested, 0.33% active; AID 1259311;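 active means z-score of -3 or lower and OD600 up to 0.18 on both plates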;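 further: plate controls were untreated cells for no effect and reference antibiotic for full effect; stock transfer was 100 nL into about 80 µL; one replicate is shown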
Mtb hypoxia inh growth: also measured in Mtb hypoxia inh; calls as there; growth inhibition, %; measured here: M. tuberculosis growth (absorbance);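 0% = vehicle and 100% = reference antibiotic; read after six days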
Starred values were filed as active, the others as inactive; ? = inconclusive; . = no result given; & = joins results of further samples.

The opening twelve records, ahead of the listing:
SMILES	Sa ugtP lethal	Autofluor counter	BJeLR viability	Mtb hypoxia inh	Mtb hypoxia inh growth	PrP UTR inh	Sa RN4220 lethal
O=C(c1c(F)c(F)c(F)c(F)c1F)N1CCN(Cc2ccc3c(c2)OCO3)CC1	-4	5238	2	-13	4	-24	0.6
N/C(=N\c1nc2ccccc2o1)NC(=O)c1ccc(F)cc1	5	3306	3	.	.	-69	13
COc1ccc(N2CCN(Cc3nc4scc(-c5cccs5)c4c(=O)[nH]3)CC2)cc1	15	4481	14	4	11	-34	2.7
O=C(O)C/C(=C\c1cccc(NC(=O)c2ccccc2Cl)c1)c1nc2ccccc2s1	4	4445	-4	-9	-8	-25	8.6
O=C(O)CCSc1nc2ccccc2n1Cc1ccccc1	1	3662	-7	-3	13	-12	-2.0
CCCCC[C@H]1CN(C2CCCCC2)C(=O)[C@@H]1CC(=O)NCc1ccccc1	.	3472	-4	.	.	-17	.
NC(=O)c1cc(-c2ccccc2)nc(N2CCCCCC2)n1	4	2442	-4	.	.	-15	0.5
Cc1ccccc1-c1nc(CS(=O)CC(=O)NC2CCCCC2)c(C)o1 (stereo not drawn)	10	4528	-2	-1	-6	-2	3.4
CCCOP(=O)(c1ccc(N(C)C)cc1)C(Nc1ccccc1)c1ccc(N(C)C)cc1 (stereo not drawn)	-13	2142	10	0	4	-13	2.0
COCCNC(=O)c1ccc2snnc2c1	-1	4462	8	.	.	6	1.9
Cc1oc2ccccc2c1CNC(=O)N(C)C	1	.	-8	19	14	-21	1.1
COc1ccc(NC(C)=O)cc1S(=O)(=O)N(C)Cc1c(C)nn(-c2ccccc2)c1C	1	2902	.	7	2	-9	4.6

The whole of this part, from the start:
SMILES	Sa ugtP lethal	Autofluor counter	BJeLR viability	Mtb hypoxia inh	Mtb hypoxia inh growth	PrP UTR inh	Sa RN4220 lethal
O=C(c1c(F)c(F)c(F)c(F)c1F)N1CCN(Cc2ccc3c(c2)OCO3)CC1	-4	5238	2	-13	4	-24	0.6
N/C(=N\c1nc2ccccc2o1)NC(=O)c1ccc(F)cc1	5	3306	3	.	.	-69	13
COc1ccc(N2CCN(Cc3nc4scc(-c5cccs5)c4c(=O)[nH]3)CC2)cc1	15	4481	14	4	11	-34	2.7
O=C(O)C/C(=C\c1cccc(NC(=O)c2ccccc2Cl)c1)c1nc2ccccc2s1	4	4445	-4	-9	-8	-25	8.6
O=C(O)CCSc1nc2ccccc2n1Cc1ccccc1	1	3662	-7	-3	13	-12	-2.0
CCCCC[C@H]1CN(C2CCCCC2)C(=O)[C@@H]1CC(=O)NCc1ccccc1	.	3472	-4	.	.	-17	.
NC(=O)c1cc(-c2ccccc2)nc(N2CCCCCC2)n1	4	2442	-4	.	.	-15	0.5
Cc1ccccc1-c1nc(CS(=O)CC(=O)NC2CCCCC2)c(C)o1 (stereo not drawn)	10	4528	-2	-1	-6	-2	3.4
CCCOP(=O)(c1ccc(N(C)C)cc1)C(Nc1ccccc1)c1ccc(N(C)C)cc1 (stereo not drawn)	-13	2142	10	0	4	-13	2.0
COCCNC(=O)c1ccc2snnc2c1	-1	4462	8	.	.	6	1.9
Cc1oc2ccccc2c1CNC(=O)N(C)C	1	.	-8	19	14	-21	1.1
COc1ccc(NC(C)=O)cc1S(=O)(=O)N(C)Cc1c(C)nn(-c2ccccc2)c1C	1	2902	.	7	2	-9	4.6
COCc1ccc(C(=O)Nc2cccc(S(=O)(=O)N(C)c3ccccc3)c2)cc1	-15	3417	.	8	18	-12	4.7
O=S(=O)(Nc1nc(-c2ccccc2)cs1)c1cccc(C(F)(F)F)c1	57	3960	-3	7	6	-20	-14
O=C(CSc1nnc(CNC(=O)c2ccccc2)o1)NCC1CCCO1 (stereo not drawn)	2	6007	-2	4	7	0	2.2
CCOc1ccc(CCNC(=O)C2CCCN(S(=O)(=O)c3c(C)n[nH]c3C)C2)cc1OCC (stereo not drawn)	6	3981	7	5	7	-1	6.2
COc1ccc2c(c1OC)C(=O)OC2c1c(O)n(C2CCCCC2)c(=O)[nH]c1=O (stereo not drawn)	1	3368	-8	7	5	-11	8.2
CC1CCCCC1NC(=O)C1CCCN1S(=O)(=O)c1cccc2nsnc12 (stereo not drawn)	7	5140	-3	8	10	-27	3.1
O=C(O)C(Cc1ccc(O)cc1)N1C(=O)C2CCCCC2C1=O (stereo not drawn)	4	4208	-7	1	9	-18	3.9
Cn1c2ccccc2c(=O)c2ccc(C#CC3(O)CCCCC3)cc21	6	3729	-9	-2	1	48	-1.1
O=C(CCCc1cccs1)Nc1nc2c(s1)CCCC2	-13	8975	-18	0	9	-47	1.1
Cc1c(C(=O)N2CCC2)oc2ccc(Br)cc12	-12	6239	-1	12	-2	-8	8.6
COc1ccc(C2C(C(=O)Nc3ccccc3)=C(C)Nc3nc(CCCO)nn32)cc1 (stereo not drawn)	-3	5642	3	-8	1	-43	5.1
CCCCCn1nc(C)c(/C=N\NC(=O)c2cc(C)oc2C)c1C	.	11124	3	.	.	-17	.
CCCNc1nc2c(c(=O)[nH]c(=O)n2C)n1CCOc1ccccc1	9	3551	-14	-2	11	.	4.5
CN(C)c1ncnc2c1ncn2-c1ccccc1	-3	2907	.	14	8	-47	-2.9
C/C(=N\NC(=O)CSc1nc2ccccc2s1)c1ccco1	.	1955	2	.	.	0	.
Cc1cc2nc3s/c(=C/c4ccc(-c5ccccc5C(=O)O)o4)c(=O)n3c2cc1C	.	10163	8	.	.	15	.
Fc1cccc(Cl)c1CNC(c1ccccc1)c1ccccc1	68	7585	6	12	1	7	-7.7
COC(=O)C1=C(C)NC(=O)/C1=C\c1ccc2c(c1)OCO2	-1	8934	-1	6	5	-3	2.7
CCOC(=O)c1c(O)cc(OC)cc1CCc1ccccc1	72	3827	.	-1	1	-21	2.5
O=C(Nc1ccc(Oc2ccc(NC(=O)Nc3ccc([N+](=O)[O-])cc3)cc2)cc1)Nc1ccc([N+](=O)[O-])cc1	-4	3338	6	-4	2	4	6.0
CC(=O)N(c1nnc(-c2ccc(C)cc2)s1)C1CCCC1	4	3578	21	2	14	-42	0.6
Cc1n[nH]c(C)c1N1C(=O)c2cccc3c(Br)ccc(c23)C1=O	-19	3183	10	-7	4	-48	-11
Cn1nccc1C(=O)N1CCCC(N2CCN(c3cccc(C(F)(F)F)c3)CC2)C1 (stereo not drawn)	.	6021	2	.	.	-2	.
CCOc1ccc2[nH]c3nc(SCC(=O)NC4CCCC4)nnc3c2c1	-2	3364	20	8	3	-32	3.5
O=C(NN=Cc1ccccn1)c1ccc(NN=Cc2ccccn2)cc1	7	.	.	-6	-6	.	2.8
CCOc1ccc(NC(=O)N2CCN(S(C)(=O)=O)CC2)cc1	4	3272	4	9	2	-16	1.5
CCOC(=O)C1(C(F)(F)F)N=C(c2ccccc2F)OC(N(C)C)=N1 (stereo not drawn)	-5	4594	8	1	7	-20	21
CCCc1sc(N)nc1-c1ccc(Cl)cc1	37	2628	7	5	-4	-16	7.0
Cc1ccc(-c2ccc(SCC(=O)NC3CCCCC3)nn2)cc1	-1	4764	1	-4	0	-4	-3.6
COc1ccc(C(=O)Nc2c(Cl)cc(Cl)cc2C(=O)NCc2ccco2)cc1	-2	5422	3	-4	6	-26	1.4
COc1ccccc1OCCNC(=O)c1cc(F)c(F)cc1Cl	4	2189	-4	10	6	-53	3.3
O=C(CSc1n[nH]c(-c2ccncc2)n1)Nc1ccccc1	-1	6506	-15	-5	-1	-31	-2.3
CC(C1CC2CCC1C2)n1c(-c2cccs2)n[nH]c1=S (stereo not drawn)	11	3702	-7	13	8	-4	3.5
O=C(CC1CC=CCCC(Cc2ccc(F)cc2)C(=O)OCCNC1=O)NCCO (stereo not drawn)	0&-1	.	.	0&6	10&6	.	-1.0&6.6
Cc1ccc(S(=O)(=O)N2CCN(C(=O)c3ccccc3OCc3c(C)noc3C)CC2)cc1	-1	6251	.	-8	-9	7	0.8
CCOC(=O)NC(N(O)c1cccc(Cl)c1)C(Cl)(Cl)Cl (stereo not drawn)	-26	5904	-1	10	-3	.	-2.1
Cc1cc2c(cc(C(=O)OC(C(=O)NCC3CCCO3)C(C)C)n2C)o1 (stereo not drawn)	4	2638	-1	-5	1	-14	2.0
O=[N+]([O-])c1ccc(Nc2c3ccccc3nc3ccccc23)cc1	81	4333	0	8	-2	6	54
CC(C)COC(=O)Nc1nnc(SCc2ccccc2F)s1	5	22547*	-1	3	-6	-28	6.4
COc1cccc2cc(C(=O)Nc3cccc(C)n3)c(=O)oc12	0	2453	12	12	9	-92	2.2
CCCCn1c(=O)[nH]c2ccccc21	12	5845	7	7	-3	2	1.7
CCOC(=O)c1cc(C)sc1NC(=O)CCC(=O)O	5	10988	.	4	11	.	-0.3
O=C(NC1(Cc2ccc(O)cc2)CCCCC1)c1ccccc1	-4	3414	8	-8	-9	-15	3.8
COc1ccc(NC2CCCN(C(=O)c3ccc(OC)cc3OC)C2)cc1 (stereo not drawn)	12	5199	8	5	-5	-17	4.8
Cc1cc2nc(C)n(CCCNC(=O)Nc3ccc(F)cc3)c2cc1C	-8	4184	-7	7	9	-11	0.0
COc1cccc(N2CCN(c3ccc(S(=O)(=O)N4CCCC4)cc3)CC2)c1	4	11874	.	13	7	-19	5.9
Cn1cc(Br)c(C(=O)NNC(=O)c2ccccc2)n1	3	1939	5	10	4	-25	23
Cc1ccccc1NC(=O)C(=O)NCCc1ccccc1	7	2012	1	7	18	-19	3.5

Following part:
SMILES	Sa ugtP lethal	Autofluor counter	BJeLR viability	Mtb hypoxia inh	Mtb hypoxia inh growth	PrP UTR inh	Sa RN4220 lethal
O=C(Nc1ccc(N2C(=O)c3cccc4cccc(c34)C2=O)cc1)c1ccc(N2CCCCC2)c([N+](=O)[O-])c1	-15	1927	1	-4	-7	-21	3.1
O=C(/C=C/c1cccc([N+](=O)[O-])c1)NCCN1C(=O)S/C(=C\c2ccc(F)cc2)C1=O	1	10504	-29	2	-2	-17	3.4
Cc1cccc(NC(=O)CSc2nnc3ccc(-c4ccccn4)nn23)c1	-2	?	-13	-11	12	-22	-2.6
CC1CN=C(NC(=O)c2cccc([N+](=O)[O-])c2)S1 (stereo not drawn)	20	2941	-4	-2	-5	-1	4.4
O=S(=O)(CCN1CCOCC1)c1ccc(Cl)cc1	8	?	1	-12	-8	2	3.6
CCOCCn1c(N2CCN(c3ccccc3)CC2)nc2c1c(=O)n(C)c(=O)n2C	-1	4339	-1	7	21	-27	1.7
COc1cccc(-c2cc(C(F)(F)F)nc(-n3ccc([N+](=O)[O-])n3)n2)c1	3	4331	3	13	4	-14	1.2
O=C1CN(C(=O)COC(=O)CNC(=O)c2ccc(Cl)cc2)c2ccccc2N1	-5	3481	-11	-9	-7	-6	0.9
O=C(NC(=S)Nc1ccc(-c2nc3ncccc3o2)cc1)c1ccccc1F	-2	4440	6	.	.	-26	7.7
CCOC(=O)C1=C(C)N(C)C(=S)NC1c1cccc(Cl)c1Cl (stereo not drawn)	-2	2083	22	6	1	-13	7.7
O=C(Cc1ccc(S(=O)(=O)N2CCOCC2)s1)N1CCN(c2ccc(C(F)(F)F)cc2[N+](=O)[O-])CC1	.	?	-12	.	.	2	.
COCCNC(=S)N/N=C(\C)c1cccc([N+](=O)[O-])c1	.	2395	-13	.	.	0	.
Cc1c(NC(=O)COC(=O)Cc2ccc(Br)cc2)c(=O)n(-c2ccccc2)n1C	7	6271	.	1	-1	-9	4.4
CCN1C(=O)C2C(c3ccc(-c4ccc(Cl)c(Cl)c4)cc3)N[C@@](Cc3ccccc3)(C(=O)OC)C2C1=O (stereo partly drawn)	-3	.	.	0	4	.	-0.2
Cc1ccc(/C=N/NC(=O)c2nnn(-c3nonc3N)c2CN(C)C2CCCCC2)cc1	.	4708	7	.	.	-12	.
COc1ccccc1C=NOCc1cc(C(C)=O)ccc1OC	20	.	.	10	11	.	4.3

Not a hit list; any-hit rate near 4%.
